Six1-Eya2 inh: Six1/Eya2 interaction inhibition. Q15475+O00167. AlphaScreen GST-Six1/His-Eya2 binding, biochemical; stronger effect = lower value; control for the full effect not named in the record. activity change, % (test concentration not listed). 360,000 compounds, 0.56% hits; in the data active = activity change below about -65%; inconclusive = about -30% to -65%; inactive = above about -30%; note: % is set by controls: 0 for no effect and ±100 for the full control effect
Target sequence (O00167 whole entry, looked up): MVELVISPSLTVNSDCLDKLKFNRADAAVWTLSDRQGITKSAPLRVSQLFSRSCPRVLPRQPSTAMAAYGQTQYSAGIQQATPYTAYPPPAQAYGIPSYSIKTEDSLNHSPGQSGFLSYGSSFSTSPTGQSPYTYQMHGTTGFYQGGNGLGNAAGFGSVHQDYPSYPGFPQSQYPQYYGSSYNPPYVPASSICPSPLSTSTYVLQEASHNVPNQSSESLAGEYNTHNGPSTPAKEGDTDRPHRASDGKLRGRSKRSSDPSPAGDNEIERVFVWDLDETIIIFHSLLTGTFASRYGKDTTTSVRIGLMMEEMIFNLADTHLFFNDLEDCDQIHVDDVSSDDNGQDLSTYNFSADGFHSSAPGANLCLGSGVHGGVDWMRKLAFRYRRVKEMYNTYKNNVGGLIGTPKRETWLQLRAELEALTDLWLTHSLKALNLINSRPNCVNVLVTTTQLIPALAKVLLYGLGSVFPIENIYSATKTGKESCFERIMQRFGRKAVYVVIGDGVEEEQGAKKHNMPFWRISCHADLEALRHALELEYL
Target sequence (Q15475 whole entry, looked up): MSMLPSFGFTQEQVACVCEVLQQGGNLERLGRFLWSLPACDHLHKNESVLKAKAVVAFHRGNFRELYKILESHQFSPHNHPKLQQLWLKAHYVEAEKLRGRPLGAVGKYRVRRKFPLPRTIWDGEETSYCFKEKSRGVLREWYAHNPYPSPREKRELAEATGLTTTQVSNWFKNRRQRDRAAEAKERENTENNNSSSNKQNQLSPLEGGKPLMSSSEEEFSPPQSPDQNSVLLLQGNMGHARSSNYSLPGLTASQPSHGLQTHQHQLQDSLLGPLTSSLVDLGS
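Compounds are tested against tagged Six1 and Eya2 proteins bridged by glutathione donor and nickel acceptor beads; after a one-hour incubation at 37 °C without light, AlphaScreen emission is recorded.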
CtBP-E1A blk: blocks the CtBP interaction with E1A | AlphaScreen GST-E1A/His-CtBP binding, 1536-well; stronger effect = lower value; control for the full effect not named in the record | 340,000 compounds, 0.49% hits | activity change, % (test concentration not listed); in the data active means activity change below about -65%; inconclusive means about -30% to -65%; inactive means above about -30%; note: % is set by controls: 0 for no effect and ±100 for the full control effect
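GST-E1A and His-tagged CtBP (125 nM each as 5X stock) were preincubated with pin-transferred compound for 2 h at 37 °C in the dark, then glutathione donor and nickel acceptor beads were added for 1 h before AlphaScreen reading.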
D2 agonist: agonists of human D2 dopamine receptor (beta-arrestin) | P14416 | DiscoveRx PathHunter D2 beta-arrestin, luminescence, 90 min; 100% = 57 uM dopamine signal | activation, % (test concentration not listed) | 360,000 compounds, 0.084% hits; in the data active = activation above about 40%; inconclusive = about 15% to 40%; inactive = below about 15%; note: compound concentration not given in the record; the text of the record calls up to 30% inactive
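Agonist mode: compounds alone added to overnight-plated D2 PathHunter cells for 90 min at 37 C, with 57 uM final dopamine (EC100) defining full response. Beta-arrestin recruitment detected by chemiluminescent reagent, read after 1 h at ambient temperature.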
gsp agonist: gsp mutant agonism; gsp mutant cells, cAMP HTRF, 30 min; control for the full effect not named in the record; Potency, µM (titrated, usually from 76.9 µM), for inactives: top-dose activation (cAMP increase), hits mostly activators; 340,000 compounds, 0.13% hits; AID 624287; active = well fitted activation curve with a large enough effect; inconclusive = small, poorly fitted or top-dose-only effect, or another doubt; inactive = no such curve, though single readings can be large or run the other way; cell line not stated here;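 note: phosphodiesterase inhibitor Ro 20-1724 added with compounds to block cAMP breakdown; potency is the fitted concentration of half-maximal effect; nearly all actives have a fitted effect of over 60% in size; about a fifth of the inactives were tested at one dose only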
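Cells stably selected in G418 were plated at 2000/well, grown 16-24 hr, then given compounds in DMSO with the PDE inhibitor […] (300 uM solution added) for 30 min at 37C; cAMP was read by HTRF.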
D2 PAM: potentiates the human D2 dopamine receptor allosterically | P14416 | DiscoveRx D2 beta-arrestin cells, luminescence, 90 min; 100% = 57 uM dopamine signal | potentiation, % (test concentration not listed) | 360,000 compounds, 0.23% hits; active = potentiation of 50% or more; inconclusive = 30% to 50%; inactive = 30% or less;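 note: compound concentration not given in the record; tested on top of an EC20 dose of dopamine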
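D2 cells co-treated with compound plus 50 nM dopamine (EC20) for 90 min at 37 deg C to detect potentiation. Beta-arrestin recruitment was read as enzyme-fragment luminescence after 1 h at ambient temperature. Full response was set by 57 uM dopamine.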
gsp antagonist: gsp mutant antagonism | gsp-mutant cells, cAMP HTRF, 30 min; control for the full effect not named in the record | 340,000 compounds, 0.4% hits | AID 624288 | Potency, µM (titrated, usually from 76.9 µM), for inactives: at the highest dose activity change, negative = inhibition, actives largely listed as inhibitors; active = falling curve of any shape with a large fitted effect; inconclusive = falling curve, mostly with a smaller effect; inactive = flat or rising curve; cell line not stated here;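 note: intracellular cAMP measured with PDE inhibitor Ro 20-1724 present during compound exposure; potency is the fitted concentration of half-maximal effect; % is set by controls: 0 for no effect and ±100 for the full control effect; nearly all actives have a fitted effect of over 65% in size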
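HTRF cAMP read-out (cAMP-d2 plus anti-cAMP antibody-K in lysis buffer, 30 min RT). Before lysis, cells are exposed to compounds with […] for 30 min at 37C in DPBS containing Ca/Mg, BSA and Tween 20.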
* hit, by the source's call; ? = inconclusive; nt = no result given; [ ] = dose if it differs, or a comment.

SMILES	Six1-Eya2 inh	CtBP-E1A blk	D2 agonist	gsp agonist	D2 PAM	gsp antagonist
COc1ccc(Cl)cc1NC(=S)Nc1ccccc1F	4.0	0.5	-2.4	-18.0%	-11.8	-12.1%
CCCSc1nc2c(c(=O)[nH]c(=O)n2C)n1CC(O)COc1ccccc1 (stereo not drawn)	2.3	5.7	0.3	-7.3%[15.4 µM]	-4.6	-4.2%
CS(=O)(=O)n1nc(-c2ccco2)nc1N	1.5	4.2	2.5	5.2%	0.5	1.7%
CCOC(=O)CN1NC2(CCCCC2)NC1=S	4.8	6.6	-2.7	2.9%	-19.1	13.9%
OCCC1CN(Cc2cnc(N3CCOCC3)s2)CCN1C1CCCC1 (stereo not drawn)	-0.9	nt	-4.0	-0.3%	-14.0	5.5%
c1ccc(COC2CCCN(Cc3nc(-c4cnccn4)no3)C2)nc1 (stereo not drawn)	-5.5	nt	-2.5	-10.0%	-5.9	6.5%
O=C(c1cccc(C(F)(F)F)c1)C1CCCN(C(=O)CN2CCOC2=O)C1 (stereo not drawn)	0.3	-4.3	-8.7	10.6%	-11.5	-2.8%
CC(=O)Nc1cc2c(cc1C(=O)c1ccc(C)cc1)OCCO2	-0.9	-1.3	-3.2	17.8%	-1.8	-1.7%[15.4 µM]
Cc1ccc(S(=O)(=O)N(C)C)cc1NC(=O)C(C)OC(=O)c1cc[n+]([O-])cc1 (stereo not drawn)	5.7	-2.3	-3.7	-7.9%[15.4 µM]	-10.7	-0.3%
NC(=O)c1cccc(-c2ccnc3c2CC(C(=O)NCc2ccccc2)O3)c1 (stereo not drawn)	-5.2	-3.5	-2.1	nt	-2.8	nt
COc1cc(NC(=S)N2CCC(C(N)=O)CC2)c(OC)cc1Cl	-3.4	-1.0	-1.9	-0.4%	-1.8	14.3%
Cc1ccc(S(=O)(=O)C(C#N)c2nc3ccccc3nc2N2CCCC2)cc1C (stereo not drawn)	-4.9	-17.4	0.5	36.3%	4.6	1.9%
Cc1ccc(S(=O)(=O)Nc2ccc(NC(=O)Nc3cccc(C(F)(F)F)c3)cc2)cc1	-8.8	-17.2	8.2	-6.8%	-7.5	-32.3%
CCn1c2ccccc2c2cc(NC(=O)COC(=O)c3ccccc3Br)ccc21	-10.5	-12.2	-0.1	29.5%	6.8	-11.3%
N#Cc1c(N)oc(-c2cccs2)c1-c1cccs1	-8.2	2.4	-1.6	-21.4%	1.7	7.3%
Cc1cc(C)cc(NC2=NC3(CCCCC3)N=C(N)N2)c1	-14.6	-7.8	-3.9	2.6%	-20.4	4.6%
CS(=O)(=O)N1CCC(C(=O)NCc2ccccc2)CC1	-16.0	-26.9	-0.7	-0.7%[15.4 µM]	-1.5	-2.2%
COc1ccc(S(=O)(=O)N(CCCN2CCOCC2)Cc2cccc(OC)c2OC)cc1	-7.2	-4.2	-1.9	9.9%	-54.2	1.6%
O=C(CN1C(=O)c2ccccc2S1(=O)=O)NCCC1=CCCCC1	-3.2	0.0	-3.8	-31.0%[inhibitor]	-36.1	-0.7%
CN(C)C(=O)CSc1cccc2cccnc12	-91.4*	-94.4*	-3.8	-3.8%	-4.5	12.9%
O=C(NCCC(=O)N1CCN(S(=O)(=O)c2ccccc2Cl)CC1)Nc1ccccc1	3.5	0.7	2.7	?	0.0	-6.4%
Cc1cc(=O)[nH]c(SCC(=O)N2C(C)CCCC2C)n1 (stereo not drawn)	17.5	1.2	7.4	0.6%	0.7	-1.4%
CCNc1nc(NCC)n2c(SCC(=O)Nc3ccccc3Cl)nnc2n1	-10.8	-2.0	5.4	0.3%	3.0	0.5%
Cc1ccc(-c2nc(C3CCCN(S(=O)(=O)c4ccc(C(F)(F)F)cc4)C3)no2)cc1 (stereo not drawn)	4.3	2.6	-5.1	?	-1.2	-6.7%
CC(=O)N[C@@H](Cc1ccc(OC(F)(F)F)cc1)C(=O)O	2.3	5.0	-2.6	-6.8%	-6.9	9.1%

Profiles, looked up by structure:
COc1ccc(Cl)cc1NC(=S)Nc1ccccc1F in the list: Six1-Eya2 inh: 4.0; CtBP-E1A blk: 0.5; D2 agonist: -2.4; gsp agonist: -18.0%; D2 PAM: -11.8; gsp antagonist: -12.1%
c1ccc(COC2CCCN(Cc3nc(-c4cnccn4)no3)C2)nc1 (stereo not drawn) in the list: Six1-Eya2 inh: -5.5; CtBP-E1A blk: nt; D2 agonist: -2.5; gsp agonist: -10.0%; D2 PAM: -5.9; gsp antagonist: 6.5%

Next part
SMILES	Six1-Eya2 inh	CtBP-E1A blk	D2 agonist	gsp agonist	D2 PAM	gsp antagonist
COc1cc(-c2noc(C)c2C(=O)NCCc2ccccc2)cc(OC)c1OC	2.1	-11.1	-1.2	nt	-7.1	7.3%
CC(C)c1cccc(C(C)C)c1NC(=O)CCN1C(=O)NC2(CCCC2)C1=O	4.0	-0.1	0.2	-9.7%	-12.1	7.5%
Cc1ccc(C(=O)Nc2cccnc2)cc1S(=O)(=O)N1CCCC1	-7.6	2.1	-2.4	-1.3%	-3.9	11.9%
CCOC(=O)c1c(C=O)c2ccccc2n1CC	-4.8	2.1	-2.6	-18.9%	-13.3	-0.9%
CCOC(=O)C1=C(C)N=C2SCCC(=O)N2C1c1cc(Br)ccc1OC (stereo not drawn)	-1.5	-2.7	0.2	17.3%	-26.8	1.6%
CCn1cc(/C=C(\NC(=O)c2ccccc2F)C(=O)N2CCN(C)CC2)c2ccccc21	1.0	2.4	1.1	-39.2%[inhibitor]	-14.2	nt
O=C(N1CCOCC1)N1CCC(c2nc(-c3ccc(S(=O)(=O)N4CCOCC4)cc3)no2)CC1	0.5	3.8	0.2	-111.0%[inhibitor]	0.4	7.3%
Cc1ccc(-n2[nH]c(C)c(C=NC34CN5CN(CN(C5)C3)C4)c2=O)cc1C	0.8	-16.4	-3.7	0.4%	0.7	5.2%
CSC(=Nc1ccccc1)C(C#N)c1nc2ccccc2[nH]1 (stereo not drawn)	19.3	0.0	-5.9	-11.9%[15.4 µM]	1.1	-6.1%
COc1cccc(CNC(=O)CCS(=O)(=O)c2cccc3nsnc23)c1	-3.5	4.3	-0.3	1.3%	-7.3	-1.4%
CCN1CCc2nc(NC(=O)c3ccccc3)sc2C1	1.1	-18.0	-4.0	11.4%	7.1	14.4%
NCCNC(=O)Cc1cccc(NC(=O)Cc2ccc(Nc3ncnc4c3ncn4[C@@H]3O[C@H](CO)[C@@H](O)[C@H]3O)cc2)c1	-0.5	4.0	-4.0	nt	3.9	-2.5%
CC(OC(=O)CCN=C1NS(=O)(=O)c2ccccc21)C(=O)Nc1ccc(F)cc1Cl (stereo not drawn)	-2.0	-1.0	-4.6	-8.1%[15.4 µM]	-56.4	8.3%
CN(CCN1CCOCC1)Cc1nc(-c2ccc(Cl)cc2)no1	-5.5	2.9	-1.0	-5.0%[15.4 µM]	-5.6	12.7%
COc1ccccc1-c1cc(C(=O)N2CCN(c3ccccc3OC)CC2)no1	-2.9	-8.4	-0.7	-17.8%	-2.7	-1.9%
COc1ccc(-c2cc(C(=O)Nc3c(C)n(C)n(-c4ccccc4)c3=O)no2)cc1OC	-5.1	nt	3.1	-27.6%	-6.6	0.5%
CCc1cc2c(SCC(=O)Nc3ncc(Cl)c(C)c3Cl)ncnc2s1	-12.9	nt	5.9	-26.8%	0.1	2.5%
O=C(CCCOc1ccc(Cl)cc1Cl)NCc1ccncc1	2.7	-1.5	1.6	18.8%	-6.8	-10.1%
CC1(C)O[C@@H]2C[C@H]3[C@@H]4C[C@H](F)C5=CC(=O)CC[C@]5(C)[C@H]4[C@@H](O)C[C@]3(C)[C@]2(C(=O)CO)O1	3.6	-16.1	-7.0	nt	-4.2	1.7%
O=C(c1ccc2c(c1)OCO2)N(CC1CCCO1)C1(C(=O)NC2CCCC2)CCCCC1 (stereo not drawn)	3.5	2.6	-1.4	-41.1%[inhibitor]	-18.2	-2.0%
CC(C)(C)NC(=O)NC(=O)COC(=O)C1c2ccccc2Oc2ccccc21	1.6	18.3	4.1	6.8%[15.4 µM]	1.7	-4.8%
COc1ccc(NC(=O)C(C)N2c3cccc4cccc(c34)S2(=O)=O)cc1OC (stereo not drawn)	-5.1	10.1	3.8	-50.6%[inhibitor]	-6.6	-17.1%
O=C(Nc1cccnc1N1CCOCC1)c1cc2ccccc2oc1=O	-1.5	-2.5	1.8	-4.2%	13.2	6.1%
Cc1cc(CNC(=O)C(C)Cc2ccccc2)nn1C (stereo not drawn)	0.3	9.5	-1.3	?	-0.9	-0.2%
O=C(COC(=O)c1ccc(Br)o1)c1ccc(S(=O)(=O)N2CCCCC2)cc1	0.3	nt	-15.3	-8.4%	-56.7	3.8%
CC1(C)ON=C(c2ccc(C(F)(F)F)cc2)NC1=O	-1.4	10.6	13.6	nt	4.2	nt
CC1=C(C#N)c2nc(N)c(C#N)c(C)c2/C1=C\c1ccc(OCC(=O)O)c(Cl)c1	?	?	3.9	19.2%[15.4 µM]	13.3	-8.2%
O=S(=O)(Cc1ccc(Cl)cc1)Nc1ccc(Cl)cn1	-3.0	10.5	0.0	-4.0%[15.4 µM]	-0.3	0.1%
OCC1(CCOc2ccccc2)CCN(Cc2ccncc2)CC1	2.6	nt	1.4	-30.2%[inhibitor]	-9.1	-1.4%

Some of these compounds in order of their number in D2 agonist, highest first.
SMILES	D2 agonist
CC(C)(C)NC(=O)NC(=O)COC(=O)C1c2ccccc2Oc2ccccc21	4.1
COc1ccc(NC(=O)C(C)N2c3cccc4cccc(c34)S2(=O)=O)cc1OC (stereo not drawn)	3.8
COc1ccc(-c2cc(C(=O)Nc3c(C)n(C)n(-c4ccccc4)c3=O)no2)cc1OC	3.1
CC(C)c1cccc(C(C)C)c1NC(=O)CCN1C(=O)NC2(CCCC2)C1=O	0.2
O=C(c1ccc2c(c1)OCO2)N(CC1CCCO1)C1(C(=O)NC2CCCC2)CCCCC1 (stereo not drawn)	-1.4

High-throughput results deposited in PubChem BioAssay by National Center for Advancing Translational Sciences (NCATS).
